ClpP mod: qHTS Assay for Activators of ClpP | ATP-dependent Clp protease proteolytic subunit (Bacillus subtilis (strain 168)), P80244 | purified B. subtilis ClpP, FRET peptide cleavage, 20 min | Potency, µM (titrated, usually from 57.5 µM), for the others: at the top dose activity change, negative = active | 340,000 tested, 1.9% active | AID 651965, 2013; active = well fitted falling curve with a large enough effect; inconclusive = small, poorly fitted or top-dose-only effect; inactive = no such curve, though single readings can be large or run the other way; also: the source files actives as falling curves though it sought activators and does not explain the sign; nearly all actives have a fitted effect of over 65% in size; many hits overshoot -100%
Target sequence (P80244 whole entry, looked up): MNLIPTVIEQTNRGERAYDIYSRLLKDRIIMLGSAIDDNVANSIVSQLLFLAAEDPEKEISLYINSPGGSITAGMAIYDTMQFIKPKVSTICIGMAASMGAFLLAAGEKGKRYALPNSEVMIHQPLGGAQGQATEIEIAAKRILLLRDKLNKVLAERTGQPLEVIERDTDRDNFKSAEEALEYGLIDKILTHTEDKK
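FRET quenching reversal measured ClpP activation: 10 microg/mL B. subtilis ClpP at pH 8 with the FRET-FV decapeptide, read at 430 nm after 320 nm excitation. The 20-min minus 0-min signal was scaled between DMSO/no-enzyme wells and ADEP (5.8 microM final).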
* hit, by the source's call; ? = inconclusive. Potency is read from the fitted curve at half-maximal effect. Only part of the results is shown; the hit share may differ from the screen's.

SMILES	ClpP mod
COC(=O)c1ccc(NC(=O)CN2C(=O)c3cccc4cccc2c34)cc1	6.2%
CCc1ccccc1Nc1nn2c(=O)c3ccc(C(=O)NCc4ccc(C)cc4)cc3nc2s1	3.6%
Cc1ccc(C)c(N2CCN(C(C(=O)NC3CCCC3)C(C)C)CC2)c1 (centres undefined)	-5.2%
CC(=O)c1cccc(NS(=O)(=O)c2cccc(S(=O)(=O)c3ccc(Br)cc3)c2)c1	-2.0%
CCn1c(C)c(C2N3CC4(C)CN2CC(CC)(C3)C4=O)c2ccccc21 (centres undefined)	0.9%
COc1ccccc1NC(=O)C1=C(C)Nc2nc(SCc3ccccc3F)nn2C1c1cccs1 (centres undefined)	-1.9%
O=C(NCCSCc1ccc(Cl)cc1)C1CCN(S(=O)(=O)Cc2ccccc2)CC1	-0.5%
O=C(C1CCCN(S(=O)(=O)c2cccc3nonc23)C1)N1CCN(c2ccccc2F)CC1 (centres undefined)	0.3%
Cc1ccc(CCNC(=O)C2CCN(Cc3nc(-c4ccccc4C)oc3C)CC2)cc1	-2.4%
O=c1c(N2CCN(c3cccc(C(F)(F)F)c3)CC2)csc2ccc(Cl)cc12	-27.1%
CCC(=O)Nc1sc2c(c1C(=O)Nc1ccc(OC)cc1)CCC(C(C)(C)C)C2 (centres undefined)	-2.7%
Cc1cccc(C(=O)Nc2ccccc2C(=O)OCc2cc(=O)n3nc(C4CC4)sc3n2)c1	?
CCOc1ccc(CNC(=O)Cn2nc(C)c3nn(-c4ccc(Cl)cc4)c(C)c3c2=O)cc1OC	0.5%
COc1cccc(CSc2nc3n(n2)C(c2cccc(F)c2)C(C(=O)Nc2ccccc2C)=C(C)N3)c1 (centres undefined)	0.5%
O=C(COC(=O)c1cc(-c2ccccc2)nc2ccccc12)c1ccc(Br)cc1	3.3%
CCN(CC)S(=O)(=O)c1ccc(-c2csc(=Nc3cccc(C(F)(F)F)c3)n2Cc2ccc3c(c2)OCO3)cc1	-3.2%
Cc1ccc(-c2nnc(Nc3ccc(C(N)=O)cc3)c3ccccc23)cc1S(=O)(=O)N1CCCCC1	-8.9%
O=C(Nc1ccccc1Cl)N1CCC(CN2CCCC2)CC1	-2.4%
CCOC(=O)C(=C1Nc2ccccc2N1)n1c(-c2cnccn2)nc2ccccc21	-9.9%
CCOC(=O)c1c(C)[nH]c(CCC(=O)NCc2ccccc2C)c1C	0.3%
Cc1ccc(NC(=O)C2CCCN(c3ncnc4c3nc3n4CCCCC3)C2)c(Br)c1 (centres undefined)	0.7%
COc1ccc(CCNC(=O)CCCCn2c(=O)c3ccccc3n(Cc3cc(C)ccc3C)c2=O)cc1OC	0.0%
CCOCCCNC(=O)c1ccc(-n2c(-c3ccccc3)cc3c2CCCC3)cc1	-15.9%
C=CCNC(=O)c1cc(-c2ccccc2)sc1N	?
Cc1ccccc1CNC(=O)c1ccc2nc(C(C)C)oc2c1	-3.6%
COC(=O)c1cc(C)nc2c1c(=O)nc(SCc1ccccc1Cl)n2C1CC1	3.1%
CN(C)c1ccc(/C=C/c2ccnc3ccccc23)cc1O	1.8%
CCOC(=O)c1cc(-c2ccc(OC)c(S(=O)(=O)NCc3ccccc3Cl)c2)on1	-26.8%
COc1ccc(NC(=O)c2c(NCc3cccc(OC)c3)sc3c2CCC3)cc1	-2.8%
CCOC(=O)[C@]12CCCC=C1N(Cc1ccc3c(c1)OCO3)C(=O)[C@H](CC(=O)NCCC(C)C)C2	-1.2%
Cc1ccccc1NC(=O)CSc1cn(CC(=O)N(C(C)C)C(C)C)c2ccccc12	2.5%
Cc1ccc(N2CCN(c3cc(C)nc4c(-c5ccc(Cl)cc5)c(C)nn34)CC2C)cc1 (centres undefined)	?
Cc1ccccc1Nc1c(-c2ccco2)nc2c(C)cccn12	4.1%
O=C(Cn1cc(SCc2c(F)cccc2Cl)c2ccccc21)N1CCCCCC1	2.5%
COC(=O)c1c(-c2cccs2)csc1NC(=O)c1cc(OC)cc(OC)c1	-28.7%
COC(=O)c1ccc(CN(Cc2ccc(OC)c(OC)c2)S(=O)(=O)c2ccc(F)c(C(=O)Nc3cc(C)ccc3C)c2)cc1	-5.4%
CCCCOc1cccc(C(=O)Nc2ccc3oc(-c4cccnc4)nc3c2)c1	?
COC(=O)[C@]12CCCCC=C1N(Cc1ccc3c(c1)OCO3)C(=O)[C@H](CC(=O)N1CCCC1)C2	4.0%
COc1ccc(Cl)cc1NC(=O)c1ccc2c(c1)CCN2S(C)(=O)=O	48.2%
COc1cccc(CNC(=O)Cc2csc3nc(-c4ccccc4)cn23)c1	-1.3%
Cc1cc(Br)ccc1NC(=O)C(Cc1ccccc1)NS(=O)(=O)c1ccc(Br)s1 (centres undefined)	0.2%
CCOC(=O)[C@]12CCC=C1N(Cc1ccc3c(c1)OCO3)C(=O)[C@H](CC(=O)NCCCCc1ccccc1)C2	-10.2%
COc1ccc(-n2ncc(C(=O)N3CCN(C(=O)c4ccco4)CC3)c2C2CCN(C(=O)OC(C)(C)C)CC2)cc1	0.3%
COc1ccc(Cl)cc1NC(=O)Cn1c(=O)c2ccccc2n2nncc12	-11.7%
Cc1oc(-c2ccccc2F)nc1Cn1c(SCc2cccc(C(F)(F)F)c2)nc2ccncc21	-49.1%

3 of the compounds above, with bars between the fields.
Compound | ClpP mod
CCCCOc1cccc(C(=O)Nc2ccc3oc(-c4cccnc4)nc3c2)c1 | ?
COC(=O)[C@]12CCCCC=C1N(Cc1ccc3c(c1)OCO3)C(=O)[C@H](CC(=O)N1CCCC1)C2 | 4.0%
COc1ccc(Cl)cc1NC(=O)c1ccc2c(c1)CCN2S(C)(=O)=O | 48.2%

New compounds follow.
SMILES	ClpP mod
CCOc1ccc(NC(=O)CSc2nc(-c3ccc(OC)cc3)nc3c2Cc2c(CO)cnc(C)c2O3)cc1	0.7%
CCOc1ccc(-c2nn(-c3ccccc3)cc2C2NC(=O)NC(C)=C2C(=O)OC(C)C)cc1 (centres undefined)	0.2%
Cc1ccc(Cn2c(=O)c3ccccc3n3c(-c4ccccc4)nnc23)cc1	-3.0%
COc1cccc(-c2nnc3n(Cc4ccccc4Cl)c(=O)c4ccccc4n23)c1O	-4.9%
CCN1CCC(N(Cc2ccc(F)cc2)C(=O)Nc2cccc(C(F)(F)F)c2)CC1	-1.3%
O=C(Nc1nnc(Cc2ccccc2)s1)C1CCN(C(=O)c2cccs2)CC1	-1.6%
CCOC(=O)c1c(-c2ccc(C)cc2)csc1NC(=O)c1cc(=O)c2cc(C)c(C)cc2o1	-1.7%
Cc1ccc(C)c(N2CCN(C(=O)Cn3cnc4onc(-c5ccc(F)cc5)c4c3=O)CC2)c1	-0.5%
Cc1cc(NC(=O)CSc2ncc(C(=O)Nc3ccc(F)cc3)c(=O)n2C)no1	?
Cc1cc(C)cc(NCc2nnc3n2CCCCC3)c1	0.7%
COCCCNC(=O)c1cnc2sc(N3CCCCCC3)nn2c1=O	?
Cc1ccc2c(c1)c1c(c(=O)n(-c3ccccc3)c(=O)n1CC(=O)NCCC1=CCCCC1)n2C	4.1%
Cn1cc([C@]2(O)C(=O)Nc3ccc(OC(F)(F)F)cc32)c2ccccc21	8.0%
COc1ccc(OC)c(CNS(=O)(=O)c2ccc(-c3cc(C(F)(F)F)on3)s2)c1	0.2%
NS(=O)(=O)c1ccc(CCNC(=O)C2COc3ccccc3C2)cc1 (centres undefined)	-19.9%
COc1ccccc1NC(=O)CN(c1cc(C)cc(C)c1)S(=O)(=O)c1c(C)[nH]c(=O)[nH]c1=O	-0.9%
O=C(NCCc1ccccc1F)C1C(=O)Nc2ccccc2C(=O)N1C1CCCCC1 (centres undefined)	3.5%
COc1cccc(C(=O)NC2CC(=O)N(c3ccc4c(c3)OCCO4)C2)c1OC (centres undefined)	-4.0%
COc1ccc(S(=O)(=O)N(Cc2nc(-c3ccccc3)no2)C2CCCCC2)cc1	1.0%
COc1cccc(C2CC(=O)Nc3cc(OC)c(OC)c(OC)c32)c1OC(C)C (centres undefined)	1.2%
COc1ccc(NC(=O)COc2ccc(S(=O)(=O)NC3CCCCC3)cc2)c(OC)c1	1.4%
CCOC(=O)c1c(NC(C)=O)c2c3c(sc2n1Cc1nc(-c2ccccc2Cl)oc1C)CCCC3	-5.8%
Cc1c2cnn(CC(=O)N3CCCCC3)c(=O)c2c(C)n1Cc1ccc(F)cc1	-10.9%
Cc1cc(NC(=O)c2cnn(-c3ccccc3)c2-n2cccc2)ccc1Br	-5.4%
COc1cc(NC(=O)CSc2nnc3c(n2)[nH]c2ccc(OC)cc23)cc(OC)c1	0.9%
Cc1cc(-c2ccc(C)c(S(=O)(=O)N3CCOc4ccc(Cl)cc43)c2)on1	2.8%
CCOc1ccc(N(C(C)C(=O)Nc2cc(Cl)ccc2OC)S(C)(=O)=O)cc1 (centres undefined)	-2.5%
CN(Cc1ccccc1)C(=O)Nc1ccc2c(c1)N(C)C(=O)c1ccccc1S2	3.3%
CCOC(=O)c1[nH]c2c(c1Cc1ccccc1OC)C(=O)CC(c1ccc(OC)cc1)C2 (centres undefined)	-7.2%
Cc1nnc(N2CCN(C(=O)Nc3cc(F)ccc3F)CC2)c2nn(-c3ccc(Cl)cc3)c(C)c12	-1.6%

Compounds above with a tert-butyl group (2):
SMILES	ClpP mod
CCC(=O)Nc1sc2c(c1C(=O)Nc1ccc(OC)cc1)CCC(C(C)(C)C)C2 (centres undefined)	-2.7%
COc1ccc(-n2ncc(C(=O)N3CCN(C(=O)c4ccco4)CC3)c2C2CCN(C(=O)OC(C)(C)C)CC2)cc1	0.3%

Returning to the listing; the 2 compounds before the break are reprinted first.
SMILES	ClpP mod
CCOC(=O)c1[nH]c2c(c1Cc1ccccc1OC)C(=O)CC(c1ccc(OC)cc1)C2 (centres undefined)	-7.2%
Cc1nnc(N2CCN(C(=O)Nc3cc(F)ccc3F)CC2)c2nn(-c3ccc(Cl)cc3)c(C)c12	-1.6%
COc1ccc(NC(=O)c2nnn(-c3ccc(C(C)C)cc3)c2C)c(OC)c1	-17.0%
CC1(C(=O)NCc2ccccc2)CN(S(C)(=O)=O)CC(=O)N1CCc1c[nH]c2ccccc12 (centres undefined)	0.4%
Cc1cc(C)cc(C(=O)Nc2ccc(-c3nc4ncccc4o3)cc2)c1	4.3%
Cc1ccc(C)c(NC(=O)Cn2cc(C(=O)c3ccc(Cl)cc3)c(=O)c3ccc(C)nc32)c1	-1.2%
COc1cc(NC(=O)Cn2c(=O)ccc3cc(S(=O)(=O)N4CCCC4)ccc32)cc(OC)c1	-2.5%
Cn1ccc2cc(S(=O)(=O)N3CCN(C(=O)Nc4cccc(F)c4)CC3)ccc21	2.5%
COc1ccc(N(CC(=O)NCCc2ccc(C)cc2)S(=O)(=O)c2c(C)nn(C)c2C)cc1	-3.1%
CCOc1ccc(NC(=O)CCc2c(C)nc3cc(-c4ccccc4OC)nn3c2C)cc1	3.9%
O=S(=O)(N1CCN(c2nc(-c3cccs3)nc3ccccc23)CC1)C(F)(F)F	4.3%
CCOC(=O)CCc1c(C)c2cc3c(c(C)c2oc1=O)OCN(CCc1ccccc1OC)C3	3.7%
Cc1cccc(NC(=O)Cn2c(=O)c3cccn3c3ccccc32)c1C	-0.1%
Cc1ccc(-c2nnc(Nc3ccc(Cl)cc3)c3ccccc23)cc1S(=O)(=O)N1CCOCC1	-22.0%
Cc1cc(C)cc(NC(=O)Cn2c3ncccc3c(=O)n2-c2ccc(C)c(C)c2)c1	4.0%
CCc1cccc(-n2c(=O)c3cccnc3n2CC(=O)NCc2ccccc2)c1	4.1%
COCCCNC(=O)C1CCCN(C(=O)c2cnn(-c3ccc(F)cc3)c2-n2cccc2)C1 (centres undefined)	0.4%

Pulled by compound from the list above, two records:
SMILES	ClpP mod
COCCCNC(=O)C1CCCN(C(=O)c2cnn(-c3ccc(F)cc3)c2-n2cccc2)C1 (centres undefined)	0.4%
Cc1cc(C)cc(C(=O)Nc2ccc(-c3nc4ncccc4o3)cc2)c1	4.3%

The list continues.
SMILES	ClpP mod
CCCN(CCC)C(=O)C(Cc1ccccc1)NS(=O)(=O)c1ccc2c(c1)c(=O)n(C)c(=O)n2C (centres undefined)	-4.4%
CCOc1ccc(CCNC(=O)CCCc2nnc3n(CC)c(=O)c4sccc4n23)cc1OCC	-11.3%
CN(C)S(=O)(=O)c1ccc2c(c1)N(CC(=O)N1CCCCC1)CCS2	3.7%
O=C(NCCc1ccc(Cl)cc1)C(=O)NCC(c1ccco1)S(=O)(=O)c1ccc(Cl)cc1 (centres undefined)	2.3%
Cc1c(Cl)cccc1Nc1sc(C(=O)c2ccccc2)c(N)c1S(=O)(=O)c1ccccc1	-17.5%
O=C(c1ccc([N+](=O)[O-])cc1)N1CCN(c2ccc(Nc3ccccc3)nn2)CC1	1.2%
COc1cc(-c2cc(OC)c3c(C)oc(C)c3c(=O)c2)ccc1OC(=O)c1cccc(Cl)c1	-1.8%
Cc1ccccc1-c1nn2c(=O)cc(CN3CCN(C(=O)/C=C/c4ccccc4)CC3)nc2s1	-7.0%
CCCOc1ccc(NC(=O)CC2C(=O)N(c3ccccc3)C(=O)N2CCC(C)C)cc1 (centres undefined)	-0.9%
Cc1c(Cl)cccc1NC(=O)CN1C(=O)CCn2nc(-c3cccn3C)cc21	-2.0%
Cc1ccc(NC(=O)c2cc3c(-c4ccccc4)nn(-c4ccccc4)c3s2)cc1	17.8µM*
O=S(=O)(Nc1ccc2oc3c(c2c1)CCCC3)c1cc(Cl)ccc1Cl	-1.6%
CCOC(=O)C1=C(CN2CCCCC2)NC(=O)NC1c1ccc(C)cc1 (centres undefined)	-0.9%
CCC(Oc1ccccc1)C(=O)Nc1cc(-c2ccccc2F)nn1-c1ccccc1 (centres undefined)	5.8%
Cc1nn(CC(=O)O)c(=O)c2cc3cc(F)ccc3n12	28.2µM*
CCOC(=O)c1noc2ncn(CC(=O)Nc3ccccc3OC)c(=O)c12	-0.9%
Cc1ccc(C)c2sc(NC(=O)c3ccc(S(=O)(=O)N4CCC(C)CC4)cc3)nc12	38.1%
Cc1cc(C)c2cc(C#N)c(NCCNC(=O)c3ccccc3)nc2c1	-10.1%
